rRNA inh HTS = inhibitors of bacterial rRNA selective over humanized ribosomes; E. coli WT GFP vs humanized-ribosome RFP mutants, fluorescence, 24 h; hits give low values; DMSO median 0, no signal -100; GFP signal change (wild-type ribosome), % (test concentration not listed); 350,000 compounds, 1.6% hits;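 active = significant combined selectivity score with lowered wild-type GFP, culture density cut under 30%, mutant RFP and density less affected; inactive = any of these conditions unmet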; also: one replicate is shown; some compounds called inactive have numbers as strong as hits
FGF22 binding = FGF22 (human) thermal shift binding | Q9HCT0 | recombinant FGF22 thermal shift, SYPRO orange fluorescence; percent of sucrose octasulfate shift, DMSO zero | calls only at 9.99 µM | 340,000 compounds, 1.5% hits;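 active = melting point raised past a set limit in the mean and every replicate; inconclusive = no clear call; three in four hits are not shown here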
Target sequence (Q9HCT0 whole entry, looked up): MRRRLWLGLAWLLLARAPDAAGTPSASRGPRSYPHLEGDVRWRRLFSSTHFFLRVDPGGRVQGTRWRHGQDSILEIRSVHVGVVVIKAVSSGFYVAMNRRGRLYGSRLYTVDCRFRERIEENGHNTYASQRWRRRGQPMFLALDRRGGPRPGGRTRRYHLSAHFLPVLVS
Vif TR-FRET = HIV-1 Vif–A3G interaction blockers – biochemical, TR-FRET, GST-Vif 1-94, biotin-A3G peptide, dose response retest, primary screen (AID 1117319) | TR-FRET GST-Vif / biotin-A3G peptide binding; higher % means a stronger effect; test concentration not given here; strong numbers were not always called active | inhibition, %; hits with a dose series show IC50 in µM | 260,000 compounds, 0.57% hits;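 active = above the screen mean plus three standard deviations and confirmed in dose response; inconclusive = results disagree or hit not tested in dose response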;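 also: Vif residues 1-94 fused to GST binding biotinylated APOBEC3G peptide 110-148; 0% = full assay without inhibitor and 100% = GST in place of GST-Vif; retest series ran down from 100 µM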
E coli growth = blocks Escherichia coli growth; OD600 absorbance (concentration not given with the values); AID 1053175; 330,000 compounds, 0.21% hits; OD600, 23 h; hits give low values;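 active = OD600 absorbance below the run mean of sample wells minus 3.6 SD, in any replicate, cut at about 0.56 in these data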;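 also: stock transfer was 300 nL into about 60 µL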
AF4-AF9 inh = inhibitors of human MLL-AF4/AF9 interaction. AlphaScreen, biotin-AF4 peptide binding to FLAG-AF9. 350,000 compounds, 0.47% hits. AID 651704. inhibition, % at 10 µM;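 active = every replicate reaching a set inhibition limit, whatever the replicate mean, cut at about 25% in these data; inconclusive = mean inhibition reaches that limit but some replicates miss it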;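 also: 0% = plate neutral control median and 100% = total signal loss; the record names both 10 and 1 µM as test concentration; the first replicate is given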
HNF4A DNA FP = change in binding of human HNF4 alpha to DNA. P41235. HNF4a-FITC DNA binding, fluorescence polarization, 1 h. activity change, % at 10 µM. 360,000 compounds, 0.3% hits; in the data active = activity change above about 30%, passing the limit was not always enough;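 also: controls were the assay level and a saturating level of protein; the project sought stronger binding though the title names inhibitors; some compounds called inactive have numbers as strong as hits; positive values seem to mean higher polarization but the record does not say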
Target sequence (P41235 whole entry, looked up): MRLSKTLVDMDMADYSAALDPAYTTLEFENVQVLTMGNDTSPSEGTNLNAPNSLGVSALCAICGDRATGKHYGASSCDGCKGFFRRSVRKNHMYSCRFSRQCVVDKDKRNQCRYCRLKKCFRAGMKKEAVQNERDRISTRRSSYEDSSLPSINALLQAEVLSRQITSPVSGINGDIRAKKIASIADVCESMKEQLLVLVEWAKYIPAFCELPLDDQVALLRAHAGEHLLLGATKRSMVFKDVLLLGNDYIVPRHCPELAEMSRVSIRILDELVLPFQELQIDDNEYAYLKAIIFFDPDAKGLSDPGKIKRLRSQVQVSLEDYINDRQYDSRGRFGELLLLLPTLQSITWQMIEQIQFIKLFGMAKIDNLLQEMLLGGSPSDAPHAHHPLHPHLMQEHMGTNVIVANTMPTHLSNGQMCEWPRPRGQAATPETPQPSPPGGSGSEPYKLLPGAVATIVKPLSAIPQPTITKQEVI
ALR inh = inhibitors of human sulfhydryl oxidase ALR; P55789; purified ALR, DTT oxidation, H2O2 HRP-luminol luminescence; 290,000 compounds, 3.8% hits; inhibition, % (no concentration beside the values);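 active = mean and each replicate at 75% or more; inconclusive = only one of the two met; inactive = neither met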;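 also: stock transfer was 7.5 nL into about 7.5 µL; 0% = neutral wells and 100% = wells with inactivated enzyme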
Target sequence (P55789 whole entry, looked up): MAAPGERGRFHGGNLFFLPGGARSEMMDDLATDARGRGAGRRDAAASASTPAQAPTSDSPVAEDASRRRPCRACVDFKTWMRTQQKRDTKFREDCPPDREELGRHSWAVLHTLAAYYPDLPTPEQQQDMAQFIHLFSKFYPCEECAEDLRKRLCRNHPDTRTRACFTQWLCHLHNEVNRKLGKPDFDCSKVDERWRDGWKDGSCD
rRNA inh HTS OD600 = second read-out of rRNA inh HTS, no call of its own (marks repeat the call); OD600 change, %; measured here: OD600 growth;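 optical density of the mix in the first replicate; 0 = DMSO median and -100 = no signal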
rRNA inh HTS RFP = recorded beside rRNA inh HTS, whose call it bears; RFP signal change, %; measured here: RFP humanized mutant strains;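 first replicate; 0 = DMSO median and -100 = no signal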
Active calls of the source: *; i = inactive; ? = inconclusive; . = no result given. These rows are one share of the data; count on the stated rates, not on these rows.

SMILES | rRNA inh HTS | rRNA inh HTS OD600 | rRNA inh HTS RFP | FGF22 binding | Vif TR-FRET | E coli growth | AF4-AF9 inh | HNF4A DNA FP | ALR inh
O=C(Nc1cnc2sccn2c1=O)c1ccccc1Cl | . | . | . | . | 5% | 0.66 | . | 1.2 | -6
COc1ccc(OCC(=O)N2CCC(Cc3ccccc3)CC2)cc1 | -3 | -20 | 0.0 | i | -1% | 0.67 | 2.9 | -2.2 | -95
CC(=O)Nc1ccc(Cl)cc1-c1ccccc1 | 1 | -2 | 9.1 | . | 3% | 0.72 | -27 | -1.6 | .
C[n+]1cccc(C2C(C#N)=C(N)Oc3c2ccc2ccccc32)c1 (stereo not drawn) | -3 | -1 | 3.9 | i | ? | 0.63 | 4.7 | -7.0 | 14
COc1ccc(NC(=O)Nc2ccc3c(c2)C(=O)N([C@@H](C)CO)C[C@H](C)[C@@H](CN(C)S(=O)(=O)c2ccccc2)OCCCC[C@H](C)O3)cc1 | -1 | 7 | 4.4 | i | . | . | -1.1 | . | .
C[C@@H]1CN([C@H](C)CO)C(=O)c2cc(-c3ccncc3)cnc2O[C@@H]1CN(C)C(=O)Cc1ccccn1 | 0 | 7 | -2.4 | i | . | . | -2.5 | . | .
CO[C@@H]1CN(C)C(=O)c2ccc(NC(=O)C3CCC3)cc2OC[C@@H](C)NC[C@@H]1C | -1 | 3 | 1.2 | i | . | . | -2.0 | . | .
COc1ccc(OC)c(NC(=O)C2(C)CCN2C(=O)Cc2ccc(Cl)cc2Cl)c1 (stereo not drawn) | -17 | -30 | -3.8 | i | . | . | 6.2 | 0.9 | .
COc1ccc(S(=O)(=O)Nc2ccccc2C(=O)NCc2ccco2)cc1 | . | . | . | . | 2% | 0.69 | . | -4.6 | 11
COc1ccc(-n2c(C)cc3cc(OC(C)=O)ccc32)cc1 | -23 | -32 | -1.2 | i | . | 0.63 | 2.8 | 0.0 | -26
O=C(c1ccco1)N1CCN(C(=O)C2CCN(S(=O)(=O)Cc3ccccc3)CC2)CC1 | . | . | . | . | 2% | 0.67 | . | 3.3 | -11
O=C(NCc1cccs1)c1cccc(N2CCCC2=O)c1 | . | . | . | . | 7% | 0.7 | . | 1.8 | -18
CC(C)(C)NC(=O)c1cccc(NC(=O)c2ccc3c(c2)C(=O)N(C(C)(C)C)C3=O)c1 | -18 | -28 | 1.3 | i | . | 0.65 | 4.7 | -0.6 | -1
CCn1c(C)c(C(C)=O)c(NCc2ccccc2)nc1=S | -7 | 11 | 3.7 | i | ? | 0.73 | 19 | 1.6 | 98*
O=C(Nc1ccccc1)c1ccc(NC(=O)C2CC2)cc1 | 2 | 12 | -0.3 | i | 4% | 0.71 | 0.0 | 1.6 | -9
C[C@@H]1CN([C@@H](C)CO)C(=O)c2cc(N(C)C)ccc2O[C@H]1CN(C)Cc1ccc(C(F)(F)F)cc1 | -3 | 6 | -2.3 | i | . | . | 13 | . | .
CN(NC(=O)C(=O)NCc1ccco1)C(=O)NC1CCCCC1 | 14 | 19 | 4.0 | i | . | . | -0.4 | . | .
CCc1cc(C(=O)OC)c(NC(=O)CN2CCN(C(=O)c3ccco3)CC2)s1 | 3 | 6 | -1.7 | i | -4% | 0.72 | 0.5 | -1.8 | -3
COc1ccc(-n2c(C)nc3c(cnn3-c3ccccc3)c2=O)cc1 | . | . | . | . | -3% | 0.7 | . | -1.8 | -59
Cc1ccc(NC(=O)c2cccc(OC(F)F)c2)c(OC(F)F)c1 | -16 | -6 | -3.5 | i | . | 0.7 | -24 | 1.0 | .
CC(=O)Nc1ccc(C(=O)CSc2nnc(Cc3ccccc3)o2)cc1 | . | . | . | . | -6% | 0.7 | . | -0.5 | .
CC1(C(=O)NCC(F)(F)F)CCN1C(=O)C1(c2ccccc2)CC1 (stereo not drawn) | 12 | 11 | -0.7 | i | . | . | 2.8 | 1.8 | .
Cc1ccc(CN(C)C(=O)CCc2c[nH]c3ccccc23)o1 | -4 | 6 | -4.6 | i | . | 0.67 | -0.1 | -0.8 | 11
COc1ccc(CCC(=O)OCC(=O)NC2CCCC2)cc1OC | 14 | 18 | 0.6 | . | 0% | . | -4.2 | 2.2 | .
COc1cc(/C=N/Nc2ccc(Cl)c(C(=O)O)c2)ccc1OCC(=O)N1C(C)CCCC1C (stereo not drawn) | . | . | . | . | 15% | . | . | -2.7 | -5
CCC(=O)NC(c1ccccc1Cl)c1c(O)ccc2ccccc12 (stereo not drawn) | . | . | . | i | . | 0.67 | 3.2 | 1.6 | -9
CCNC(=O)N(C)[C@H]1C[C@H]2c3[nH]c4ccccc4c3CCN2C[C@H]1[C@H](C)O | 6 | 10 | -0.5 | i | . | . | 5.0 | -0.2 | .
Cn1ncc(Cl)c1C(=O)Nc1ccncc1 | . | . | . | . | 1% | 0.71 | . | -0.3 | 25
N#Cc1c(N)nc2c(c1N)CC(=O)N2c1ccccc1-c1ccccc1 | . | . | . | . | 0% | 0.69 | . | 1.1 | 2
COc1ccc([N+](=O)[O-])cc1NS(=O)(=O)c1ccccc1 | . | . | . | . | 2% | 0.62 | . | 1.6 | 0
CCOC(=O)c1cc(S(=O)(=O)NCc2ccc3c(c2)OCO3)cn1C | 2 | 4 | 0.5 | i | . | 0.69 | -5.7 | 0.4 | -2
Cn1nnnc1SCCNC(=O)C1CCC(=O)N(CCc2ccccc2)C1 (stereo not drawn) | 10 | -4 | 1.7 | i | . | 0.71 | -0.9 | -5.2 | 2
Cc1c(NC(=O)C(c2ccccc2)c2ccccc2)cccc1C(=O)O | 3 | 5 | -3.7 | i | -6% | 0.7 | -4.9 | 1.0 | 5
CCOC(=O)C(/C=C(\C#N)C(=O)OCC)=C(/N)N1CCN(c2ccccc2)CC1 | . | . | . | . | 20% | . | . | 1.7 | 8
CO[C@@H]1CN(C)C(=O)c2cc(NC(=O)c3ccccc3F)ccc2OC[C@@H](C)N(CC2CC2)C[C@H]1C | -1 | -2 | 1.9 | i | . | . | -0.8 | . | .
Cc1ccc(CNC(=O)C2CCN(S(=O)(=O)c3c(C)noc3/C=C/N(C)C)CC2)cc1 | -2 | -2 | 2.5 | i | 13% | 0.68 | -0.3 | -2.0 | -5
CS(=O)(=O)Nc1ccccc1-c1cccc2nccn12 | 3 | -3 | -1.8 | i | . | . | 0.6 | -2.4 | .
O=C(CN1C(=O)c2ccccc2S1(=O)=O)NCc1cccs1 | 4 | 9 | -1.4 | i | . | 0.67 | -1.3 | 0.6 | -5
O=C1c2cccc3cccc(c23)C(=O)N1Cc1ccco1 | 11 | 9 | -1.0 | . | . | 0.72 | -4.1 | -3.6 | -2
C#CCOCCOCCOCCNc1nc(N2CCOCC2)nc(N2CCN(C(=O)[C@H](Cc3ccc(O)cc3)n3cc([C@@H](N)C(C)CC)nn3)CC2)n1 (stereo partly drawn) | 12 | 16 | 1.3 | i | 10% | . | . | 4.0 | 0
CCCC(=O)Nc1cc(C)c(NC(=O)c2cccs2)cn1 | 4 | 1 | 0.5 | i | 6% | 0.72 | -2.1 | -3.0 | 0
CCOC(=O)/C(C#N)=C/Nc1ccccc1NS(=O)(=O)c1cccc(C(C)=O)c1 | -9 | -14 | -0.8 | i | . | . | -0.2 | 1.7 | -8
COc1ccccc1N1CCN(C(=O)C(OC(C)=O)c2ccccc2)CC1 (stereo not drawn) | . | . | . | . | ? | 0.7 | . | -0.2 | 24
C[C@@H]1CN([C@H](C)CO)C(=O)c2cc(NC(=O)Cc3cn(C)c4ccccc34)ccc2O[C@H]1CN(C)S(C)(=O)=O | -4 | -1 | 1.5 | i | . | . | 2.5 | . | .
Cc1onc(-c2ccccc2Cl)c1C(=O)Nc1cccc(-c2nc3ncccn3c2C)c1 | . | . | . | . | 5% | 0.71 | . | 1.8 | .
COc1ccc(OC)c(N=Cc2c(O)[nH]c3ccccc23)c1 | . | . | . | . | 2% | 0.71 | . | -3.2 | .
CCCSC1=N/C(=C\c2ccsc2)C(=O)S1 | . | . | . | . | 0% | 0.76 | . | -1.3 | -1
O=C(/C=C\c1ccc2c(c1)OCO2)Nc1c2c(nn1-c1ccc(Cl)cc1)CSC2 | 0 | -6 | 4.2 | i | ? | 0.73 | 3.5 | 2.2 | -14
O=C(C[C@@H]1C/C=C\C[C@@H](NC(=O)OCC2c3ccccc3-c3ccccc32)C(=O)OCCNC1=O)N[C@@H](CO)Cc1ccccc1 | 9 | 14 | 0.4 | i | 1% | 0.68 | 1.7 | -0.6 | -1
O=S(=O)(NN=C1CCCCCCC1)c1ccc(Br)cc1 | . | . | . | . | 7% | 0.72 | . | -1.1 | -9
COC(=O)[C@@]1(Cc2ccccc2)[C@H]2C(=O)N(C)C(=O)[C@H]2[C@H]2CN=C(SCc3ccc(C)cc3)N21 | -2 | -8 | -2.4 | . | 3% | 0.67 | 6.1 | 3.0 | .
CCN(CCCNC(=O)C1CCCN(S(=O)(=O)CC)C1)c1cccc(C)c1 (stereo not drawn) | . | . | . | . | 35% | 0.69 | . | -3.2 | 99*
C(=N\n1cnnc1)/c1ccc(N2CCOCC2)cc1 | . | . | . | . | 6% | . | . | 2.4 | -6
COc1ccc(CN(C)C[C@@H]2Oc3ccc(NS(=O)(=O)c4ccc(OC)cc4)cc3CC(=O)N([C@@H](C)CO)C[C@H]2C)cc1 | 1 | -6 | 3.8 | i | . | . | -1.7 | . | .
N#C[C@@H]1[C@H](c2ccccc2)[C@H](CO)N1S(=O)(=O)c1cccc(F)c1 | -4 | 5 | 0.2 | i | . | . | -1.6 | . | .
Fc1ccc(N2CCN(c3nnnn3-c3ccccc3)CC2)cc1 | 2 | 0 | -13 | i | 5% | 0.65 | -25 | 2.1 | 13
COC(=O)Nc1nnc(-c2ccc(OC)cc2)s1 | 3 | 6 | 3.3 | i | 17% | 0.69 | -0.1 | -3.2 | .
O=c1[nH]c2ccccc2c(=O)n1Cc1ccccc1 | . | . | . | . | 2% | 0.71 | . | 0.8 | .
Cc1c(C(=O)NC2CCCCC2)oc2ccccc12 | -26 | -26 | -7.4 | i | . | 0.63 | -2.1 | 3.7 | 27
C=CCn1c(CNC(=O)c2ccccc2C)nnc1SCC(=O)NC1CCCC1 | . | . | . | . | -7% | 0.71 | . | 0.8 | -4

Next section.
SMILES | rRNA inh HTS | rRNA inh HTS OD600 | rRNA inh HTS RFP | FGF22 binding | Vif TR-FRET | E coli growth | AF4-AF9 inh | HNF4A DNA FP | ALR inh
O=C(Nc1cccnc1)c1scc2c1OCCO2 | . | . | . | . | 5% | 0.67 | . | 1.6 | 3
Cc1noc(C)c1S(=O)(=O)Nc1ccc2c(c1)C(=O)N([C@H](C)CO)C[C@@H](C)[C@H](CN(C)Cc1ccc(Oc3ccccc3)cc1)O2 | -3 | -2 | 1.3 | i | . | . | 4.3 | . | .
COC(=O)C1=C(C)N(Cc2ccc(C(F)(F)F)cc2)C(=NCc2ccccc2)NC1c1cccc(C(F)(F)F)c1 (stereo not drawn) | -37 | -16 | 21 | . | . | . | -2.5 | . | .
O=C(COc1ccc(Br)cc1CO)Nc1ccccc1F | . | . | . | . | -7% | 0.72 | . | -0.3 | .

One compound at a time, from the list above. Values in the order: rRNA inh HTS	rRNA inh HTS OD600	rRNA inh HTS RFP	FGF22 binding	Vif TR-FRET	E coli growth	AF4-AF9 inh	HNF4A DNA FP	ALR inh
O=C(COc1ccc(Br)cc1CO)Nc1ccccc1F as listed: .	.	.	.	-7%	0.72	.	-0.3	.
Cc1noc(C)c1S(=O)(=O)Nc1ccc2c(c1)C(=O)N([C@H](C)CO)C[C@@H](C)[C@H](CN(C)Cc1ccc(Oc3ccccc3)cc1)O2 as listed: -3	-2	1.3	i	.	.	4.3	.	.
